Compound activity as filed in PubChem BioAssay.
HSV augment – enhancers of HSV replication in host cells, fold increase, host cell viability. 220,000 tested, 0.005% active. HSV replication augmentation in cells. maximum fold increase;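 active = peak rise of 1.5-fold or more in the series; inconclusive = self-fluorescent or not available for retest; tested in PC3 cells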;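 also: first round at 10 µM; read as green reporter fluorescence; hits show the peak of a series up to 25 µM; 1 = signal of infected wells without compound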
PKD1 inh – inhibitors of human PKD1 kinase, biochemical, fluorescence polarization. Serine/threonine-protein kinase D1 (Homo sapiens), Q15139. PKD1 kinase fluorescence polarization assay. inhibition, %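 (about 10 µM by stock and volumes)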. 200,000 tested, 0.056% active;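 active = inhibition of 50% or more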;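 also: controls were vehicle for no effect and a reference inhibitor for full effect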
Target sequence (Q15139 whole entry, looked up): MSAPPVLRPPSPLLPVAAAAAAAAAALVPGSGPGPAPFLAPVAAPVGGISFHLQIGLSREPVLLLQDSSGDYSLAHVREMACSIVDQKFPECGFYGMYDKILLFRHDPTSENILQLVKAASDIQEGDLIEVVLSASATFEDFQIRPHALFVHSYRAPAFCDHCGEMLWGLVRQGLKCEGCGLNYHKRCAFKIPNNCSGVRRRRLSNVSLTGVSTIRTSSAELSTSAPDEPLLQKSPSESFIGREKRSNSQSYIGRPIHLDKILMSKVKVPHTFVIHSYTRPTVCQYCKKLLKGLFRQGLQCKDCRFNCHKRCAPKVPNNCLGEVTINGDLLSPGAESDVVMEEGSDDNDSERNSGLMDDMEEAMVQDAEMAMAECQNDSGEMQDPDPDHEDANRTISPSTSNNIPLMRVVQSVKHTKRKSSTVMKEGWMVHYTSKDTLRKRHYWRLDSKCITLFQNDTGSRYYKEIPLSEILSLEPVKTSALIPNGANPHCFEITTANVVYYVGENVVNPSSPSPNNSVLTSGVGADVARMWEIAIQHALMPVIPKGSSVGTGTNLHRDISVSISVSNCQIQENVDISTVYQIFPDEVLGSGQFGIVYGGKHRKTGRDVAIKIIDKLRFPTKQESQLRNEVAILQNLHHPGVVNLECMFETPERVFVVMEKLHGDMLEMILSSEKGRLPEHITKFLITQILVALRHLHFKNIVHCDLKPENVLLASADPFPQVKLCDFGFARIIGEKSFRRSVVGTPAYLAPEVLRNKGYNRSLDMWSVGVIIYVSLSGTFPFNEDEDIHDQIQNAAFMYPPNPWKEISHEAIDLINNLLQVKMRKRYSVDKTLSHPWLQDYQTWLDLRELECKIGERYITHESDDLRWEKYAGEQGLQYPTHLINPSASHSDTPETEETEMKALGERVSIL
RGS16-Gao HTS – modulators of RGS16 binding to Galphao, primary screen, biochemical, human proteins, multiplexed bead flow cytometry; binding response (% of control), % at 10 µM; Regulator of G-protein signaling 16 (Homo sapiens) + Guanine nucleotide-binding protein …; bead-based flow cytometry RGS16-Galphao binding, fluorescence; actives lie on both sides; 220,000 tested, 0.38% active;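 active = below 25% or above 175%, edge rows of some plates excepted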;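 also: Galphao activated by GDP with aluminum fluoride before binding; 100% = wells without compound and 0% = beads without RGS; some results beyond the cut were filed as inactive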
Insulin prom inh – inhibitors of insulin promoter-driven GFP, primary screen, imaging, TRM-6 cells (human fetal islet line), eGFP reporter, cell count; reporter expression induced with tamoxifen; inhibition, % at 2 µM; 130,000 tested, 0.9% active;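 active = inhibition above the mean plus 3 SD, with well images judged a real hit on visual review, cut at about 60% in these data, passing the limit was not always enough; inconclusive = inhibition over the cutoff but images rejected on review; inactive = inhibition not above the cutoff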
GALR2 agonist – GALR2 receptor agonists, primary screen, cell-based. Galanin receptor type 2 (Homo sapiens), O43603. GALR2-expressing cells, agonist activation read-out. activation, %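 (tested at 5 µM)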. 140,000 tested, 0.48% active. AID 803, 2007;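 active = above mean plus 3 SD of all compounds, about 5% in these data, not always enough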;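 also: 0% = vehicle buffer wells and 100% = reference agonist at full effect; tested in CHO reporter cells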
Insulin prom inh cell count – recorded beside Insulin prom inh, whose call it bears; normalized cell count, %; measured here: cell count, toxicity; reference of the scale not given here;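 cells exposed to compound for 48 h; stained nuclei by imaging scaled within each plate; lower means fewer cells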
HSV augment primary fold – also measured in HSV augment; calls as there; fold increase; compound at 10 µM; measured here: primary screen fold increase 10 uM; tested in PC3 cells;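 GFP signal in the first replicate; 1 = infected wells without compound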
An asterisk follows results filed as active; i = inactive; ? = inconclusive; . = not tested or not shown. Compounds were not picked by outcome. Share with any hit: about 1.3%.

Start of the data: the first five compounds, ahead of the listing:
SMILES	HSV augment	HSV augment primary fold	PKD1 inh	RGS16-Gao HTS	Insulin prom inh	Insulin prom inh cell count	GALR2 agonist
COC(=O)NCC(c1cccnc1)N1CCOCC1 (configuration not stated)	i	0.99	-2	116	.	.	-2.9
CCc1ccc(/C=N/NC(=O)c2cc(C3CC3)nc3ccc(Br)cc23)s1	i	0.64	-4	99	35	66	-1.3
O=C(COC(=O)c1ccccc1-c1nc2ccccc2s1)Nc1ccccc1C(F)(F)F	i	0.85	18	102	-3	74	-1.2
NC(=O)c1sc2nc(N3CCOCC3)c3c(c2c1N)CCCC3	i	0.9	-5	90	40	24	-1.1
O=c1[nH]c2cccnc2n1Cc1ccco1	i	0.65	-9	69	33	145	0.2

Results, previewed entries included:
SMILES	HSV augment	HSV augment primary fold	PKD1 inh	RGS16-Gao HTS	Insulin prom inh	Insulin prom inh cell count	GALR2 agonist
COC(=O)NCC(c1cccnc1)N1CCOCC1 (configuration not stated)	i	0.99	-2	116	.	.	-2.9
CCc1ccc(/C=N/NC(=O)c2cc(C3CC3)nc3ccc(Br)cc23)s1	i	0.64	-4	99	35	66	-1.3
O=C(COC(=O)c1ccccc1-c1nc2ccccc2s1)Nc1ccccc1C(F)(F)F	i	0.85	18	102	-3	74	-1.2
NC(=O)c1sc2nc(N3CCOCC3)c3c(c2c1N)CCCC3	i	0.9	-5	90	40	24	-1.1
O=c1[nH]c2cccnc2n1Cc1ccco1	i	0.65	-9	69	33	145	0.2
COc1cccc(NC(=O)NC2CCN(Cc3nnnn3Cc3ccc4c(c3)OCO4)CC2)c1	i	1	.	111	.	.	.
COc1ccc(CC(=O)Nc2nc3ccccc3s2)cc1S(=O)(=O)N1CCOCC1	i	0.95	0	119	.	.	-4.0
CCOC(=O)c1[nH]c(C)c(C(=O)Nc2ccc(F)cc2)c1C	i	0.78	-15	105	.	.	-1.0
CC(=O)NCCNC(=O)c1ccc(Sc2ccccc2)c([N+](=O)[O-])c1	i	1	1	98	0	85	.
Cc1onc(-c2ccccc2)c1C(=O)NNC(=S)NC(=O)c1ccc(Br)cc1	i	1.1	-8	97	-18	51	-1.9
COc1ccccc1N=c1sc2ccccc2n1C	i	0.77	-1	98	-35	122	-1.4
Cc1ccsc1/C=C/C(=O)O	i	0.99	0	102	.	.	.
CCC(=O)Nc1ccccc1C(=O)OCC(=O)c1cccc2ccccc12	i	0.96	2	101	.	.	-2.6
COc1ccc(NS(=O)(=O)c2ccc(C)cc2)c([N+](=O)[O-])c1	i	1.1	.	100	.	.	.
COc1ccc(N(CC(=O)Nc2ccc(C)cn2)S(=O)(=O)c2c(C)nn(C)c2C)cc1	i	0.68	1	101	.	.	-4.3
C=CCn1c(Sc2nc(C)cs2)nc2c1c(=O)[nH]c(=O)n2C	.	.	2	102	-3	73	-1.1
COc1ccccc1N1CCN(C(=O)CCCCn2c(=O)[nH]c3ccsc3c2=O)CC1	i	0.94	-9	118	.	.	.
COc1ccc(C(=O)/C=C(\C)NCc2ccc3c(c2)OCO3)cc1	i	0.97	-15	110	-10	62	-3.3
CCNC(=O)c1ccccc1SCC(=O)Nc1ccc(F)cc1	i	0.91	3	92	-49	91	.
COc1cccc(/C=N/Nc2cc(C)nc(-c3ccccc3O)n2)c1O	i	0.65	-4	85	.	.	.
Nc1cc(S(=O)(=O)Nc2cc(Cl)ccc2Cl)ccc1N1CCOCC1	i	1.1	.	85	.	.	.
O=C(CN1CCN(Cc2ccccc2Cl)C1=O)NCc1cccnc1	i	0.84	.	100	.	.	.
O=C(CCCCCn1c(=O)[nH]c2ccsc2c1=O)NCc1ccc(F)cc1	i	1.2	-4	102	-46	80	-0.1
CCCNC(=O)c1nc(C)c(C)nc1C(=O)Nc1cccc(Cl)c1	i	1	-11	93	-14	120	-1.3
COc1nc(C)ccc1-c1noc(-c2ccccn2)n1	i	1	-12	103	52	54	-2.4
CC1Cc2ccccc2N1c1ncnc2nc[nH]c12 (configuration not stated)	i	1.1	35	105	60	87	-0.2
O=C(Nc1cccc(O)c1)c1ccc(Br)cc1	i	1	-2	100	-36	343	-1.2
N#Cc1c(C(F)(F)F)cc(-c2cccs2)nc1SCc1ccc(Cl)nc1	i	1.4	1	104	-27	128	-4.5
COc1cc(OC)cc(-c2nnc(SCC(=O)N3CCCCC3)o2)c1	i	1.2	1	101	-70	53	-0.8
CCOC(=O)C1CCN(c2ncnc3c2cnn3-c2ccc(Cl)cc2)CC1	i	0.86	-11	107	41	92	0.4
COc1cccc(NC(=O)Cn2c(=O)n(CCC(=O)NC3CCN(Cc4ccccc4)CC3)c(=O)c3ccccc32)c1	i	0.79	.	101	.	.	.
CC1CC(C)(C)NC(=S)N1CCCC(=O)Nc1ccccc1F (configuration not stated)	i	1	4	103	40	114	.
C#Cc1ccc([C@@H]2C=C(C(=O)OCC=C)O[C@H](OCc3ccc(CO)cc3)C2)cc1	i	1.1	5	91	.	.	.
CC1CCC2(CC1)NC(=O)N(Cc1cc(=O)n3ccsc3n1)C2=O (configuration not stated)	i	0.87	.	104	.	.	.
COc1ccc2[nH]c(=O)c(COC(=O)c3cccs3)cc2c1	i	0.95	0	14	.	.	0.8
CC(C)NS(=O)(=O)c1ccc(CCC(=O)NCc2cccnc2)cc1	i	0.99	2	111	15	113	-2.1
COC(=O)c1cc(NC(=O)c2cccc(F)c2)cc(C(=O)OC)c1	i	0.96	-4	102	12	111	.
O=C(CN1CCN(Cc2ccccc2Cl)C1=O)NCC1CCCO1 (configuration not stated)	i	1	-6	99	.	.	.
CCS(=O)(=O)c1ccc(O)c(NC(=O)CC2(CC(=O)O)CCCC2)c1	i	1	.	101	.	.	.
Cc1c(CCC(=O)O)c(=O)oc2cc3occ(C(C)(C)C)c3cc12	i	1.2	.	102	.	.	.
CC(C)NC[C@@H](O)c1ccc(O)c(O)c1	i	0.82	4	110	50	112	-0.7
COc1cccc(OCCCOc2ccc([N+](=O)[O-])cc2Cl)c1	.	.	-4	127	.	.	-2.3
O=[N+]([O-])c1cccc(-c2nc3ccc([N+](=O)[O-])cc3[nH]2)c1	i	0.95	-1	102	92*	168*	.
Cc1cc(NC(=O)CCc2ccc(S(=O)(=O)N3CCOCC3)cc2)n(-c2ccccc2)n1	i	1	-3	97	48	81	-0.6
CCOc1ccc(NC(=O)N(C2CCCCC2)C(C)c2cccnc2)cc1 (configuration not stated)	i	0.86	-2	105	.	.	-0.9
CC1CCC(C(C)C)C(OCC(O)CN2CCCC(C)C2)C1 (configuration not stated)	i	0.84	-11	102	-108	122	.
CC(=O)NC(CCS(C)(=O)=O)C(=O)Nc1ccccc1Cl (configuration not stated)	i	1	-3	99	-55	131	-2.1
Nn1c(SCC(=O)Nc2ccccc2F)nc2ccccc2c1=O	i	1.2	-1	108	-60	119	-0.6
Cc1cc([N+](=O)[O-])nn1Cc1c(F)c(F)c(F)c(F)c1F	i	1	1	100	-10	84	1.4
O=C(O)C1CC=CCC1C(=O)NCCc1csc(-c2ccccc2)n1 (configuration not stated)	i	0.93	-6	103	-85	90	-0.8
Cc1ccccc1C(=O)N[C@H](C(=O)OCC(=O)c1ccc[nH]1)C(C)C	i	1	1	118	.	.	-0.3
COc1cc(OC)c2c(OC)cccc2n1	i	0.93	-2	100	-10	138	-0.6
O=C(Nc1ncc(Cl)cn1)c1cccs1	i	1.1	-9	102	-286	68	-0.7
CCCN1C(=O)CC(c2ccco2)Sc2ccccc21 (configuration not stated)	i	0.89	1	103	-3	82	-2.0
O=C(Cn1nc2sc3ccccc3n2c(=O)c1=O)c1cccs1	i	1	.	98	.	.	.
O=C1NC(=O)/C(=C\c2ccc(Oc3cnccn3)cc2)S1	i	0.86	1	101	.	.	.
Cc1ccc(NC(=O)c2ccc(OCc3c(C)noc3C)cc2)cc1	i	0.91	.	27	.	.	.
Brc1ccc(OCc2nnnn2-c2ccccc2)cc1	i	0.96	7	107	25	90	.
CCOC(=O)N1CCN(C(=O)C(CC)c2ccccc2)CC1 (configuration not stated)	i	1.1	-7	100	6	133	-1.4
C=CCN1c2ccccc2[C@]23C[C@@H](C(=O)OC)N(C(=O)c4ccco4)C2=NC(C(=O)OC)=C(C(=O)OC)[C@H]13	i	0.87	.	93	.	.	.

Remaining list, next part:
SMILES	HSV augment	HSV augment primary fold	PKD1 inh	RGS16-Gao HTS	Insulin prom inh	Insulin prom inh cell count	GALR2 agonist
Cc1cc(N2CCN(c3ccccc3)CC2)n2ncnc2n1	i	0.95	-8	68	.	.	.
O=C(c1cc2cc(Br)cc(Br)c2oc1=O)N1CCCc2ccccc21	i	1.3	2	98	.	.	-0.6
CCOC(=O)C1=C(C)N(CCO)C(=O)NC1c1cccc(O)c1 (configuration not stated)	i	0.9	-4	107	-6	142	-0.6
O=C(N/N=C/c1ccccc1[N+](=O)[O-])c1cccs1	i	0.87	.	106	.	.	.
COc1ccc(C(CNC(=O)c2cc(=O)[nH]c3ccccc23)N2CCCC2)cc1 (configuration not stated)	i	0.95	-3	109	-24	85	-1.3
O=c1nc2n(c3cccc(Cl)c13)CCCCC2	i	1	-6	101	.	.	.
CCCCNC(=O)Cc1coc2ccc3ccccc3c12	i	0.74	-5	139	-31	109	0.6
CCOC(=O)/C(=C/C1=CC(=C/N(C)C)/C(=O)O1)C(C)=O	?	.	.	92	.	.	.
CCNS(=O)(=O)c1ccc(NC(=O)c2ccccc2SCCOC)cc1	i	0.96	-3	101	.	.	.
CCOC(=O)c1ccc(NC(=O)c2cccc(S(=O)(=O)N3c4ccccc4CC3C)c2)s1 (configuration not stated)	i	0.73	-7	121	12	98	0.1
O=C(CSc1nnc(-c2cccs2)o1)N1CCCc2ccccc21	i	0.93	-7	103	.	.	-1.8
O=c1cc(-c2ccccc2)c2ccc(O)c(CN3CCCCC3)c2o1	i	0.8	0	93	-1	121	-0.6
Cc1c(Cl)cnc(NC(=O)COC(=O)c2nn(C)c(=O)c3ccccc23)c1Cl	i	1	1	106	.	.	-1.3
COCCN(C(=S)Nc1ccccc1C)C(C)c1cccs1 (configuration not stated)	i	1	4	104	-24	124	-1.6
S=C1Nc2cc(Cl)ccc2Sc2ccccc21	.	.	1	104	.	.	-0.5
O=C(COC(=O)CNC(=O)c1ccc2c(c1)OCO2)Nc1ncc(Cl)cc1Cl	i	1.1	2	104	.	.	.
Cc1ccc(CNC(=O)CCS(=O)(=O)c2ccc(C)cc2)cc1	i	0.94	3	86	.	.	.
O=C(CSc1ccc(-c2ccccc2)nn1)N1CCOCC1	i	0.96	5	105	-7	155	-2.0
Cc1cccc(Nc2ncnc3nc[nH]c23)c1C	i	0.91	-8	103	.	.	-3.2
CCCN1C(=O)/C(=C/c2c(NCCCOCC)nc3c(C)cccn3c2=O)SC1=S	?	.	-1	113	-27	183	-2.1
O=C(N1CCOCC1)N(CCN1CCOCC1)Cc1cccc(Cl)c1	i	0.99	5	102	8	91	-0.4
O=C(Cc1cccs1)Nc1cccc(-c2nc3cc4ccccc4cc3[nH]2)c1	.	.	1	52	-31	94	-0.5
Cc1ccc(C(=O)N/C(=C/c2ccc(-c3cccc([N+](=O)[O-])c3)o2)C(=O)NC(C)C)cc1	.	.	-2	98	.	.	-0.6
CCOC(=O)C1CCN(C(=O)CS(=O)Cc2nc(-c3ccc(C)cc3)oc2C)CC1 (configuration not stated)	i	0.98	0	98	.	.	-0.4
CCNC(=S)NNC(=O)c1ccoc1C	i	0.76	-6	100	19	70	-1.1
O=C(NCCO)c1cccc(S(=O)(=O)N2CCCCC2)c1	i	0.87	1	98	.	.	-1.7
CC(C)(C)c1nc2ccccc2c(=O)n1N1C(=O)c2ccccc2C1=O	i	0.89	-3	111	-21	50	-0.4
Cc1c(Br)c([N+](=O)[O-])nn1CC(=O)NCc1cccnc1	i	0.84	-2	110	-42	83	0.1
Cc1cc(CNC(=O)Cn2cc([N+](=O)[O-])cn2)c2ccccc2n1	i	0.89	3	100	40	132	.
CC1(C(=O)NC2CCCCC2)CCC(=O)N1Cc1cccs1 (configuration not stated)	i	0.96	-6	103	.	.	-1.3
CC1(C)Oc2ccc(C(=O)N3CCOCC3)cc2N(CC(=O)N2CCOCC2)C1=O	i	0.92	39	96	-21	144	-1.3
